SNCA viab count = cell viability loss counter-screen; HEK-293-SNCA-luc viability, GF-AFC fluorescence, 24 h; Potency, µM (top dose mostly 57.1 µM), for the others: at the highest dose activity change, negative = cytotoxicity, actives largely listed as cytotoxic; 150,000 compounds, 0.12% hits;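 further: potency means the concentration at half of the fitted maximal effect; 0% = DMSO-treated cells and -100% = medium-only wells without cells; nearly all actives have a fitted effect of over 30% in size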
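HEK-293-SNCA-luc cells (1500/well) plated 24 h, then exposed 24 h to a dilution series; GF-AFC added 30 min at 37C, fluorescence 405/540 nm; normalised to medium-only and DMSO wells, Hill fit.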
Luciferase inh = inhibitors of firefly (Photinus pyralis) luciferase; purified P. pyralis luciferase, luminescence, biochemical; Potency, µM (doses to about 115 µM), without a hit: at the highest dose activity change, negative = inhibition, actives largely listed as inhibitors; 76,000 compounds, 2.5% hits; further: potency means the concentration at half of the fitted maximal effect; nearly all actives have a fitted effect of over 65% in size
Target sequence (P08659 whole entry, looked up): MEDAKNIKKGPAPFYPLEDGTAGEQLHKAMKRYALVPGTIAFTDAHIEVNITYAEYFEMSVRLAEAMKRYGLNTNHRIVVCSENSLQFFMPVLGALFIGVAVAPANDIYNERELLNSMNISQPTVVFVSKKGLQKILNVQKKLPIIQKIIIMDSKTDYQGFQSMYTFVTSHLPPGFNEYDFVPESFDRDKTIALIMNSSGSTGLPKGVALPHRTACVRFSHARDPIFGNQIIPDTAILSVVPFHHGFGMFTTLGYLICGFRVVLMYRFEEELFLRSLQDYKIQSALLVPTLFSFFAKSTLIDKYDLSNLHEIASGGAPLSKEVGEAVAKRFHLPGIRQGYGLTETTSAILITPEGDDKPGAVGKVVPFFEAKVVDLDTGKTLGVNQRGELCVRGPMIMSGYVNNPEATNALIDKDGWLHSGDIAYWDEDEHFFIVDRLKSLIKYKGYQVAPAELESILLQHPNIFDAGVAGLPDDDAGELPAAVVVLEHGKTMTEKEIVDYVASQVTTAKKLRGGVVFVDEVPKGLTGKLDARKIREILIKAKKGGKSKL
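Purified 10nM P. pyralis luciferase with 10uM D-luciferin and 10uM ATP in 50mM Tris acetate pH 7.5, 10mM Mg acetate, 0.01% Tween-20, 0.05% BSA. qHTS titration; luminescence read by CCD imager.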
IP6K1 inhibitor = IP6K1 kinase inhibition; Q92551; IP6K1 kinase, ADP-Glo luminescence, 2 h; stronger effect = lower value; activity change, % (series mostly up to about 58 µM); 140,000 compounds, 0.81% hits; in the data active means activity change below about -25%
Target sequence (Q92551 whole entry, looked up): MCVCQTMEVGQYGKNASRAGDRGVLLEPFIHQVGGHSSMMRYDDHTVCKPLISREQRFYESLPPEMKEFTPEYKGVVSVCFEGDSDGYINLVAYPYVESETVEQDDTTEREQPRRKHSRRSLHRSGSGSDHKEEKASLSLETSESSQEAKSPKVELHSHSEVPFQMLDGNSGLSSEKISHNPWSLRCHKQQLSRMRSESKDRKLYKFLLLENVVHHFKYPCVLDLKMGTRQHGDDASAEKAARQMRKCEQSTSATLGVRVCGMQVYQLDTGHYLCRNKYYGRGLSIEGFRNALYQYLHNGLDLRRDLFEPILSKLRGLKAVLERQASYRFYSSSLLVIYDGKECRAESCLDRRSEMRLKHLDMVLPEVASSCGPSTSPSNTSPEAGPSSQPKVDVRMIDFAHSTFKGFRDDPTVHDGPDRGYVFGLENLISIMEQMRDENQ
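ADP-Glo luminescence measures ADP made by human IP6K1 during a 2 h RT reaction with ATP/IP6 (mix at 1.3 mM/130 uM); top library doses 57.5 and 19.1 uM final.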
SNCA expr inhib = reduces expression of the alpha-synuclein gene | AID 1671194 | Potency, µM (titrated, usually from 57.2 µM), for the others: at the top dose activity change, negative = inhibition, usual class: inhibitors | 140,000 compounds, 0.17% hits | HEK-293 SNCA-luciferase knock-in, luminescence, 24 h;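 further: potency means the concentration at half of the fitted maximal effect; plate controls were DMSO cells for no effect and cell-free wells for full effect; nearly all actives have a fitted effect of over 45% in size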
NIH3T3 tox = cytotoxic compounds in NIH 3T3 cells; Potency, µM (top dose mostly 96.7 µM), inactives show at the highest dose activity change, negative = cytotoxicity, most hits filed as inhibitors; 94,000 compounds, 4.3% hits; AID 1345082; NIH 3T3 viability, CellTiter-Glo ATP luminescence, 48-72 h; further: potency means the concentration at half of the fitted maximal effect; nearly all actives have a fitted effect of over 55% in size
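First NIH 3T3 cells are plated at 400 cells/well; next compound is pinned in; then plates incubate 48 or 72 hr at 37 °C; finally CellTiter-Glo is added and luminescence read after 10 min.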
HEK cytotox = HEK 293 cell cytotoxicity; HEK 293 viability, ATP luminescence (CellTiter-Glo), 48-72 h; Potency, µM (top dose mostly 115 µM), without a hit: at the highest dose activity change, negative = cytotoxicity, actives largely listed as inhibitors; 94,000 compounds, 6.6% hits; AID 1345083; further: potency means the concentration at half of the fitted maximal effect; nearly all actives have a fitted effect of over 60% in size
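Read-out: CellTiter-Glo ATP luminescence. Cells: HEK 293, 250 cells/well. Exposure: 48 or 72 hr, 37 degree Celsius.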
An asterisk follows results filed as active; i = inactive; ? = inconclusive; · = no result given; [ ] = dose if it differs, or a comment. Unless noted, the call rests on the fitted dose curve; in most records, active means well fitted curve in the direction sought with a large enough effect; inconclusive means small, poorly fitted or top-dose-only effect, or another doubt; inactive means no such curve, though single readings can be large; an effect the other way counts as inactive or inconclusive. Unless noted, on the % scale 0 is the no-effect control and ±100 the full control effect.

SMILES | SNCA viab count | Luciferase inh | IP6K1 inhibitor | SNCA expr inhib | NIH3T3 tox | HEK cytotox
Cc1ccc(S(=O)(=O)N2CCC(CCC(=O)NCc3ccccc3)CC2)cc1 | 1.8% | 6.9% | 17.7 | 2.5% | ? | ?
CCn1nccc1C(=O)N1CCC(N2C[C@H](O)C[C@H]2C(=O)NC2CCCCC2)CC1 | 0.6% | 0.0% | 32.1 | -27.1% | -8.3% | 3.0%
COc1ccc(C(=O)N2CCC3(CC2)NC(=O)N(c2ccc(F)cc2)N3)cc1OC | -10.2% | 14.4% | 7.7 | -6.0% | ? | ?
Cc1nc(C)c(C(=O)N2Cc3ccccc3C(O)C2)s1 (stereo not given) | 3.0% | 7.2% | 18.1 | -19.1% | 0.8% | i
O=C(NCCN1CCCC1)C1Cn2cccc2C(=O)N1Cc1cccnc1 (stereo not given) | 2.3% | 8.6% | -12.0 | -9.3% | -2.3% | i
O=C(c1scc2c1OCCO2)N1CCCC2(CCC(=O)N(C3CC3)C2)C1 (stereo not given) | -9.6% | 3.3% | 6.9 | 8.5% | -8.1% | -6.2%
COc1cccc(NC(=O)O[C@@H]2CO[C@H]3[C@@H]2OC[C@@H]3Nc2nccc(-c3ccc4c(c3)OCO4)n2)c1 | -8.2% | -6.2% | -1.8 | -13.3% | -21.9% | -6.5%
C[C@@]1(O)CCN(CC(=O)N2CCOc3ccccc32)C[C@@H]1O | -0.1% | 0.5% | 10.8 | -5.3% | -4.4% | -6.3%
CN(C)c1cccc(Nc2cc3c(cn2)NCCN(Cc2ccccc2)C3)c1 | ? | 6.7%[172 µM] | -20.7 | -1.6%[87.6 µM] | ? | 63.1µM*
CC1CCN(CC2CCCN(C(=O)NC3CCCCC3)CC2)CC1 (stereo not given) | -5.6% | · | 4.5 | -9.0% | -26.8% | -14.4%
O=C(O)C[C@@H]1CCN(C(=O)C2CCC2)C[C@@H]1CCN1CCN(c2cccc(C(F)(F)F)c2)CC1 | 4.2% | -11.7% | 6.4 | -1.2% | 0.2% | -0.3%
Cc1cccc(=O)n1CCC(=O)N1CCCC2(CCC(=O)N(C3CC3)C2)C1 (stereo not given) | 5.6% | -6.7% | -9.6 | 0.2% | 0.9% | 2.4%
CCN1CCN(C(=O)C2CCc3nnc(C4CCN(C(C)=O)CC4)n32)CC1 (stereo not given) | 5.7%[12.5 µM] | · | 10.0 | 9.4%[87.6 µM] | -16.8%[138 µM] | -20.5%[172 µM]
Cc1nc2ccc(C(=O)N3CCCn4nc(CO)cc4C3)cc2o1 | -1.0% | 11.3% | 18.5 | -10.6% | -1.0% | -9.9%
CCN(CC)C(=O)CC[C@@H]1CNC(=O)[C@@H]2C[C@H](NCc3cccc(Cl)c3)CN12 | 9.5%[87.6 µM] | 7.8%[172 µM] | -6.3 | 11.8%[87.6 µM] | i | 3.6%[172 µM]
Cn1nc(C(=O)NC[C@@H]2C[C@H](F)CN2)cc1-c1cccs1 | 3.9% | -2.0% | -3.8 | 35.1%[activator] | -4.6% | i
CN1CCCCCCN(C(=O)NC2CCCCC2)CCC1=O | -5.6% | -5.9% | -10.8 | 10.8% | -10.6% | 2.0%
CN1CCN(C2=Nc3ccccc3Nc3ccc(Cl)cc32)CC1 | -8.3% | · | -0.8 | · | · | ·
COc1cccc(CNC(=O)c2cccc3c2CCN3C(=O)c2ccc(F)cc2)c1 | ? | ? | -7.9 | 43.4%[activator] | ? | ?
Cn1cc(C2CCN(C(=O)c3sc(Cl)c(Cl)c3Cl)CC2)c2ccccc21 | -7.0% | 4.0% | 3.7 | -11.7% | ? | ?
Cc1noc(-c2nc(Cc3cccc(F)c3)no2)n1 | 10.4% | -7.1% | 0.0 | ? | -15.6% | -18.6%
Cc1ccc(-c2nc3cnccn3c2NCCC(=O)O)cc1 | ? | ? | -0.6 | 2.2% | -4.7% | -11.4%
CS(=O)(=O)N1CCC2(CC1)CC(=O)N(CCCc1ccccc1)C2 | 5.9% | 8.9% | -0.2 | 18.3% | 4.9% | i
O=C(NCc1ccc(OC(F)(F)F)cc1)c1cc(CN2CCOCC2)on1 | 2.7% | -6.3% | 20.1 | -12.7% | -2.5% | -9.7%
O=C(CCNc1c(-c2ccccc2)nc2cnccn12)N1CCCC1 | ? | -9.3% | -7.4 | -3.1% | -23.3% | -5.2%

Record cards, as listed above. Order of values: SNCA viab count	Luciferase inh	IP6K1 inhibitor	SNCA expr inhib	NIH3T3 tox	HEK cytotox
`COc1cccc(CNC(=O)c2cccc3c2CCN3C(=O)c2ccc(F)cc2)c1` is listed with ?	?	-7.9	43.4%[activator]	?	?
`Cc1noc(-c2nc(Cc3cccc(F)c3)no2)n1` is listed with 10.4%	-7.1%	0.0	?	-15.6%	-18.6%
`COc1ccc(C(=O)N2CCC3(CC2)NC(=O)N(c2ccc(F)cc2)N3)cc1OC` is listed with -10.2%	14.4%	7.7	-6.0%	?	?
`Cc1nc2ccc(C(=O)N3CCCn4nc(CO)cc4C3)cc2o1` is listed with -1.0%	11.3%	18.5	-10.6%	-1.0%	-9.9%
`CN1CCCCCCN(C(=O)NC2CCCCC2)CCC1=O` is listed with -5.6%	-5.9%	-10.8	10.8%	-10.6%	2.0%

Additional results follow:
SMILES | SNCA viab count | Luciferase inh | IP6K1 inhibitor | SNCA expr inhib | NIH3T3 tox | HEK cytotox
COc1ccc(CNC(=O)c2cccc3c2CCN3C(=O)c2ccc(F)cc2)cc1OC | ? | ? | 7.8 | -21.5% | 39.8µM* | ?
COc1ccc(CCC(=O)N2CCC3(CC2)NC(=O)N(c2ccc(F)cc2)N3)cc1 | -7.6% | 2.2% | 5.0 | 5.8% | ? | ?
O=C1CC2(CCN(c3cnc4ccccc4n3)CC2)CN1CCCc1ccccc1 | -18.8% | 13.0% | 32.1 | -1.7% | ? | 35.5µM*
COCCn1c(C)cnc1CCNC(=O)Cn1nc(C(F)(F)F)cc1C | 7.1% | -0.1% | -8.9 | -16.6% | 2.8% | -15.9%
O=C(CCNc1c(-c2ccc(F)cc2)nc2cnccn12)Nc1ccc2c(c1)OCO2 | -0.4% | -8.5% | 11.6 | 31.7%[activator] | -9.6% | -2.0%
O=C(CCNc1c(-c2cccc(F)c2)nc2cnccn12)NCc1ccccc1 | ? | -5.8% | 9.0 | 23.2% | -13.2% | -18.2%
COCCNCc1nc2c(n1Cc1ccccc1)C(=O)N(Cc1ccccc1C#N)CCN2 | -11.9% | -6.0% | 3.5 | 1.9% | ? | -9.2%
CNC(=O)c1cccc(S(=O)(=O)NC2CCCN(C3CCCCCC3)C2)c1 (stereo not given) | -3.9% | -7.7% | 3.6 | 8.6% | -12.9% | -24.4%
CCN1CC2(CCN(Cc3cnn(-c4ccc(F)cc4)c3)CC2)CC1=O | 6.2% | -3.3% | -1.8 | 0.1% | -26.7% | ?
CN(C)CCNC(=O)C1Cn2cccc2C(=O)N1Cc1ccccc1 (stereo not given) | -6.3% | -7.4% | -3.4 | -18.4% | -12.5% | -23.4%
CC1(c2noc(-c3ccccn3)n2)CCN(C(=O)CCC(=O)N2CC(=O)Nc3ccccc32)CC1 | 3.8% | 1.1% | -8.3 | 19.0% | 3.1% | 11.2%
CCCc1cc(C(=O)N2CCN(C)C3(CCC(=O)N(CC)CC3)C2)n(C)n1 (stereo not given) | 16.4% | -8.5% | -7.3 | -1.8% | -13.5% | -21.6%
CN1CCC(Oc2ncccc2C(=O)NCCc2ccccn2)CC1 | 6.4% | 0.0% | 30.5 | 17.6% | -1.0% | -10.9%
COc1ccc(-n2ncc(C(C)NC(=O)Cc3ccc4c(c3)OCO4)c2C)cc1 (stereo not given) | -0.4% | -4.4% | 10.6 | -35.6% | ? | ?
CC(C)C(=O)N1CCN(c2nc3c(s2)CC(C(=O)NC2CCN(C)CC2)CC3)CC1 (stereo not given) | 1.4% | -2.9% | 16.1 | 26.4% | -8.2% | -3.7%
COCC(=O)N1CC[C@@H](CC(=O)O)[C@@H](CCN2CCN(c3cccc(C(F)(F)F)c3)CC2)C1 | -4.0% | -1.3% | 8.0 | -5.7% | i | i
O=C(CCNc1c(-c2cccc(F)c2)nc2cnccn12)N1CCCC1 | ? | -5.0% | 7.5 | -4.1% | -6.8% | -5.0%
O=S(=O)(c1ccc(F)cc1)N1CCCC(Cc2noc(-c3cccnc3)n2)C1 (stereo not given) | -8.2% | -14.3% | 0.0 | -12.4% | ? | ?
CN1CCN(C2=Nc3ccccc3Nc3ccc(OS(=O)(=O)C(F)(F)F)cc32)CC1 | -9.3% | · | 11.3 | · | · | ·
COCCN[C@H]1[C@@H]2OC[C@@H](O2)[C@@H](NC(=O)Nc2cccc(C#N)c2)[C@@H]1O | -13.7%[87.6 µM] | -1.7%[172 µM] | 4.0 | ? | -3.3%[174 µM] | -3.5%[172 µM]
Cc1cc(C(=O)N2CCCC(Cc3noc(-c4cnccn4)n3)C2)n[nH]1 (stereo not given) | -13.6% | -5.6% | 8.6 | 0.1% | 1.1% | 14.6%
CCN(CC)C(=O)c1cc2c(s1)CCC(C(=O)NCc1cccnc1)C2 (stereo not given) | -8.8% | -11.0% | 0.1 | 11.1% | -26.8% | -22.1%
CN1CCCCCCN(C(=O)NCc2ccccc2)CCC1=O | 6.0% | 4.4% | -14.7 | -5.3% | -4.3% | 0.5%
O=C(CCC1CCN(C(=O)c2ccccc2Cl)CC1)NC1CCS(=O)(=O)C1 (stereo not given) | -13.9% | -12.0% | 31.0 | 3.4% | 4.5% | 20.0%
CCO[C@H]1CN(C(=O)CCCOc2ccccc2)C[C@@H]1O | 6.7% | ? | 9.1 | 108.7%[activator] | -16.2% | -4.2%
Continued.
SMILES | SNCA viab count | Luciferase inh | IP6K1 inhibitor | SNCA expr inhib | NIH3T3 tox | HEK cytotox
Cc1cccc(OCCc2noc(C3CN(C(=O)C(C)C)C3)n2)c1 | -3.0% | 1.7% | 24.6 | 3.1% | -27.6% | ?
CCn1ccc2oc(C)c(C(=O)N3CCN(c4ccc(F)cc4)CC3)c2c1=O | -5.6% | 5.4% | 2.6 | -1.3% | 1.7% | -8.3%
Cc1cccc(CNC(=O)C2Cn3cccc3C(=O)N2Cc2ccccc2)c1 (stereo not given) | -6.0% | 0.0% | -4.6 | 1.6% | ? | -15.2%
O=C(c1ccc2c(c1)OCO2)N1CCN(c2ccc(Cl)nn2)C(=O)C1 | 1.6% | · | -1.0 | -13.1% | i | i
O=C1CCN(C(=O)[C@@H]2CCCN2S(=O)(=O)c2cccs2)CCCCCCN1 | 1.8% | -3.3% | 5.3 | 22.2% | -17.8% | i
CN(C)c1ccc(C(=O)N[C@H]2C[C@H]3C(=O)NC[C@@H](CCC(=O)N4CCc5ccccc54)N3C2)cc1 | 0.7% | 12.3% | 15.9 | ? | -14.0% | -18.7%
FC1(F)CN[C@H](c2nc(C3CC3)no2)C1 | -4.2% | -1.5% | 13.6 | 23.4% | -1.5% | 0.9%
CN1[C@@H](CCC(=O)Nc2ccccc2)CNC(=O)[C@@H]2[C@H]1CCN2Cc1cccc(OC(F)(F)F)c1 | -12.8% | -1.8% | 4.9 | -10.6% | ? | ?
COc1ccc(-c2cc(N3CCC(NC(=O)c4ccc(C)c(F)c4)CC3)n[nH]2)cc1 | -11.1% | 6.4% | 7.4 | -15.4% | ? | ?
Cc1cccc(OCCc2noc(C3CCCN3C(=O)COc3ccccc3)n2)c1 (stereo not given) | 3.3% | -0.1% | 5.4 | -10.6% | -10.0% | ?
O=C(NCC1CC1)C1Cn2cccc2C(=O)N1Cc1ccccc1 (stereo not given) | -4.9% | 6.6% | -8.4 | ? | -6.7% | 2.3%

Assay outcomes (PubChem)

Some of the compounds tested; the hit share may differ from the screen's.
